NPYLR7 agonist: mosquito NPYLR7 agonism. HEK293T NPYLR7/Galpha15, GCaMP6s calcium fluorescence. activation, % at 10 µM. 270,000 compounds, 0.15% hits; in the data active = activation above about 40%;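 also: 0% = vehicle and 100% = reference agonist at the receptor; some compounds past the cut are filed as inactive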
NPYLR7 agonist max-min: also measured in NPYLR7 agonist; calls as there; activation, %; measured here: Max-Min RFU normalised activation; some inactives read as strong as hits;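 span of the calcium signal over five minutes; 0% = vehicle and 100% = native peptide agonist; compound fluorescence can raise it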
Starred values were filed as active, the others as inactive; & = joins results of further samples. Only part of the results is shown; rates above refer to the full screens.

SMILES	NPYLR7 agonist	NPYLR7 agonist max-min
CC(C)=CCC/C(C)=C/CNC(=O)C(C)(C)CCCOc1cc(C)ccc1C	-3	-2
CCc1ccc(OCCn2c(C3CC(=O)N(C(C)(C)C)C3)nc3ccccc32)cc1 (configuration not stated)	1	-3
CCc1nn(C)c(Cl)c1CN1CCCC(OCc2ccccn2)C1 (configuration not stated)	-4	-5
CCc1ccc2nc(C)cc(C(=O)N3CC(c4cccnc4)C3)c2c1	9	-5
OCCCC(Nc1cncc(Cl)n1)c1ccccc1 (configuration not stated)	-2	-4
COc1cc(-c2cc(C(F)(F)F)n3ncc(C(=O)Nc4cc(C)ccc4O)c3n2)cc(OC)c1OC	12	12
CCCCn1c(C)cn2c3c(=O)[nH]c(=O)n(C)c3nc12	17	5
CCOc1cc(/C=C2/NC(=S)NC2=O)cc(Br)c1O	52*	80*
COc1ccc(C(=O)Nc2cccc(-c3nc4cc(C)cc(C)c4o3)c2)cc1[N+](=O)[O-]	-8	-17
Cc1ccsc1CN(Cc1ccc2c(c1)OCO2)C(=O)CN(C(=O)c1cccc(Br)c1)C1CCCCC1	12	8

Structural class, the compounds so far with a Cl atom.
SMILES	NPYLR7 agonist	NPYLR7 agonist max-min
CCc1nn(C)c(Cl)c1CN1CCCC(OCc2ccccn2)C1 (configuration not stated)	-4	-5
OCCCC(Nc1cncc(Cl)n1)c1ccccc1 (configuration not stated)	-2	-4

One compound at a time (already shown). Order of screens: NPYLR7 agonist | NPYLR7 agonist max-min
CCOc1cc(/C=C2/NC(=S)NC2=O)cc(Br)c1O is listed as 52* | 80*
COc1ccc(C(=O)Nc2cccc(-c3nc4cc(C)cc(C)c4o3)c2)cc1[N+](=O)[O-] is listed as -8 | -17
CC(C)=CCC/C(C)=C/CNC(=O)C(C)(C)CCCOc1cc(C)ccc1C is listed as -3 | -2
CCc1ccc(OCCn2c(C3CC(=O)N(C(C)(C)C)C3)nc3ccccc32)cc1 (configuration not stated) is listed as 1 | -3

Further compounds:
SMILES	NPYLR7 agonist	NPYLR7 agonist max-min
CCOC(=O)C1CCN(c2c(-c3ccc(OC)cc3)cnc3ncnn23)CC1	20	13
Cc1cccc(OC(F)F)c1NC(=O)C1(C)CCN1C(=O)C/C=C/c1ccccc1 (configuration not stated)	-2	11
O=C1CSC(c2cccc(C(F)(F)F)c2)N1c1ccc(O)cc1 (configuration not stated)	-2	-6
CCc1[nH]nc(NCc2ccccc2C)c1C	-3	-6
CN(Cc1ccc(C(C)(C)C)cc1)C(=O)c1ccc2nc[nH]c2c1	5	2
COc1cccc(NC(=O)Cn2nc(C3CC3)c3cnn(-c4ccc(C)cc4C)c3c2=O)c1	2	3
O=C(NCCCO)c1c(O)nc2sccn2c1=O	-3	6
CCc1nc2ccc(C(=O)NCCCn3ccnc3)cn2c1N(C)CCC(C)C	-4	-9
Cc1cc(NC(=O)CC2CSc3ncc(C)c(=O)n32)no1 (configuration not stated)	-3	-6
O=C(CCn1cc2ncccc2c1O)Nc1nccs1	2	-4
COc1ccc(C2c3[nH]c4ccccc4c3CCN2C(=O)c2noc3c2CCCC3)cc1C (configuration not stated)	6	6
CC1(C(=O)OC2CCN(CC(N)=O)CC2)CCCC1	5	3
Cc1cnc(C)c(Oc2ccccc2CN2CCCCC2)n1	6	5
O=C(Nc1ccc(N2CCc3ccccc3C2)c(C(=O)N2CCCC2)c1)Nc1cccc(Cl)c1Cl	14	17
CCN(C(=O)CCc1ccncc1)C1CN(C(=O)OC(C)(C)C)C1	4	1
CCCCc1c(O)n2c(nc3ccccc32)[nH]c1=O	-1	-2
O=C(CSc1nc2ccccc2s1)N/N=C\c1c(O)ccc2ccccc12	-10	-11
CCS(=O)(=O)c1ncc(CN2CCCC(C(=O)c3nccn3C)C2)n1CCOC (configuration not stated)	16	4
COC(=O)[C@@H]1CCCN1Cc1cn(-c2ccccc2C)nc1-c1ccc(OC)c(F)c1	1	-3
COc1ccc2nc(N(CCN(C)C)C(=O)c3cc(Cl)sc3Cl)sc2c1	-3	-9
O=C(CN(CCCN1CCOCC1)S(=O)(=O)c1cc(Cl)ccc1Cl)N(Cc1ccc2c(c1)OCO2)Cc1ccco1	13	18
O=[N+]([O-])c1cccc(C2c3cccn3CCCN2Cc2ccoc2)c1 (configuration not stated)	14	11
Cc1cc(Cl)cc2sc(N(CCCn3ccnc3)C(=O)c3ccco3)nc12	-9	-16
COCCN(Cc1c(-c2ccccc2)noc1N1CCOCC1)C(=O)c1ccccc1F	-2	0
CCOC(=O)Cn1c(O)c(N=NC(=O)CNC(=O)c2ccncc2)c2ccccc21	10	16
CNc1nc2cnc(Nc3ccncc3)cc2n1-c1cccc(C(F)(F)F)c1	17	4
CNc1oc(-c2ccc(COc3ccc(C)cc3)o2)nc1C#N	-1	21
O=C(CCN1CCCCO1)NC1CCCc2nc(-c3ccccc3)ncc21 (configuration not stated)	11	5
CC(C)(C)c1cc2nc(-c3ccccc3F)cc(C(=O)NC3CCCCNC3=O)n2n1 (configuration not stated)	-10&3	-3&16
COCc1nnc(NS(=O)(=O)c2ccc(Br)cc2)s1	2	1
CC(C)n1ccc(CN2CCN(C)C3(CCN(C(=O)c4ccco4)CC3)C2)c1	-5	-8
CCNC(=O)[C@@H]1CCCN1S(=O)(=O)NCc1ccccc1	7	3
COc1ccc(C)c2sc(N(CCN(C)C)C(=O)/C=C/c3cccs3)nc12	-8	-13
CC(C)CNC(=O)C1(C)CCCN1C(=O)C(C)(C)Oc1ccc(Cl)cc1 (configuration not stated)	1	-2
CC(C)n1cnnc1CCNCc1cc2c(cc1OC(F)F)OCO2	2	2
CN(Cc1ccc(Br)o1)Cc1nc(C(C)(C)C)no1	1	2
CCc1nc2ccc(C(=O)NCCN3CCOCC3)cn2c1N(C)C(=O)Cc1ccccc1	-1	-3
Cc1cc(N(C)/N=C\c2ccc(OCC(=O)O)cc2)nc(-c2ccccc2O)n1	-14	-22
Cn1c(=O)c2c(SCC(=O)Nc3ccc(C(N)=O)cc3)nc(-c3ccccc3F)nc2n(C)c1=O	-2	-7
CCN1CC(Cn2ccnc2-c2ccncc2)CC1=O (configuration not stated)	-4	-11
O=C(Nc1cccc(-c2cscn2)c1)C1CCN(Cc2ccc(Cl)c(F)c2)CC1	3	1
Cc1ccc(S(=O)(=O)CCc2nnc(NC(=O)c3ccco3)s2)cc1C	-1	-2
CC(=O)Nc1ccc(CN2CCCC(N3CCN(c4ccccc4)CC3)C2)cc1 (configuration not stated)	10	5
COc1ccccc1NC(=O)c1cc(-c2ccccc2)nc2ccccc12	2	1
CN(C)C(=O)COC(=O)CNC(=O)Cc1ccccc1	3	3
CCCCCCc1ccc(C(=O)N(Cc2cccc(OS(=O)(=O)CC)c2)Cc2ccco2)cc1	22	21
CNc1nc2cnc(Nc3ccccc3Cl)cc2n1-c1cccc(F)c1	7	-4
Cc1ccccc1-n1c(Cc2ccccc2)nnc1SCc1ccc(C(=O)N2CCCC2)cc1	2	14
Cn1c(=O)c2nc(Sc3ccccc3C(=O)O)n(C)c2n(C)c1=O	-2	2
COCCNc1oc2c(c1-c1ccc([N+](=O)[O-])cc1)c(=O)oc1ccccc12	-8	-8
Further entries.
SMILES	NPYLR7 agonist	NPYLR7 agonist max-min
CC(NC(=O)N(CC1CCOC1)C1CC1)c1nncn1C (configuration not stated)	10	6
COc1cc(C(=O)NCCc2cn3ccccc3n2)ccc1OC1CCN(C(C)=O)CC1	7	3
O=S(=O)(c1cc(Cl)cc(Cl)c1)N1CCC(c2nnc3ccccn23)CC1	3	0
C=CCCC(O)CN(CCN1CCOCC1)Cc1nc2sc(C(C)C)cc2c(=O)[nH]1 (configuration not stated)	-8	-7
COc1ccc2c(c1)CCN(C(=O)c1nnn(-c3nc4c(s3)CCCC4)c1C)C2	7	3
COc1ccc([C@H]2[C@@H](C(=O)NCCc3ccncc3)c3ccccc3C(=O)N2Cc2ccccc2)cc1	-3	-10
CN(CC1(CO)CCOCC1)c1nc(-c2cccnc2)nc2c1CNC2	8	5
CC(=O)Cn1c(=O)c2c(nc3n(C(C)C)c(C)cn23)n(C)c1=O	2	5
CC(C)C(c1cccnc1)N(C)S(=O)(=O)Cc1cccc(C#N)c1 (configuration not stated)	-6	-6
Cc1ccc(Cc2nsc(N3CCC(CNC(=O)Nc4cccc(Cl)c4)CC3)n2)cc1	18	24
COc1ccc(CC(=O)N2CCC(c3cn(Cc4cccc(F)c4)c4ccccc34)CC2)cc1	1	2
CCSc1nnc(SCC(=O)NC(=O)NCc2ccccc2)s1	-3	-4
O=C(O)CCc1nnc(SCc2ccc(Cl)cc2Cl)[nH]c1=O	10	4
CC(=O)N1c2ccccc2N=C2CC(c3ccccc3)CC(=O)C2C1c1ccco1 (configuration not stated)	2	0
CCOc1ccc(NC(=O)CSc2nnc(Cc3ccc(C)cc3)c(=O)[nH]2)cc1	-5	-5
Cc1cccc(CN(Cc2ccc(C(O)(c3cccs3)c3cccs3)o2)CC(C)C)c1	4	13
COc1ccccc1NC(=O)CSc1nc2ccccc2s1	-6	-6
Cc1ccc(Nc2nc(N3CCN(Cc4ccccc4)CC3)nc3nccnc23)cc1Cl	2	6
O=C(CSc1ncnc2c1nnn2Cc1ccccc1)N1CCC(Cc2ccccc2)CC1	1	38
O=C(NC1CCCCCCC1)C1CCC(CNc2c(N3CCCC3)c(=O)c2=O)CC1 (configuration not stated)	2	0
CCNc1ccnc(-c2ccc(OC)cc2C)n1	11	9
C=CC(=O)Nc1cccc(-c2cccc(-c3ccc(F)cc3F)n2)c1	-10	-4
CCn1c(SC(C)C(=O)NCc2ccc(F)cc2)nnc1C1CC1 (configuration not stated)	5	1
CC(=O)Nc1ccccc1NC(=O)CNCc1csc2c1CCCC2	12	6
Cc1c(C(=O)NCCSCc2ccco2)cnc2c(-c3ccc4c(c3)OCO4)cnn12	13	-2
CCN(CCn1cccn1)Cc1cn[nH]c1-c1ccc(-c2ccccc2)cc1	6&-2	9&-7
COCCn1c(C)cc(O)c(C(c2ccccc2)N2CCC(C)CC2)c1=O (configuration not stated)	10	3
COc1cn(CC(=O)Nc2cc(C)ccc2C)c(CSc2nc(C)cs2)cc1=O	-7	-14
COc1ccc2c3c1C(CO)N(C(=O)N1CCOCC1)CC3=CC(C)(C)CO2 (configuration not stated)	0	3
COc1ccc(C(=O)N(CCc2ccccc2)Cc2ccccn2)c(OC)c1OC	4	5
COc1ccc(Cn2c(=O)n(Cc3ccccc3)c(=O)c3oc4ccccc4c32)cc1	30	36
COc1ccc(C2c3[nH]c4ccccc4c3CC3C(=O)N(CCc4ccc(OC)c(OC)c4)CC(=O)N32)cc1 (configuration not stated)	4	3
CCCCCCCOc1ccc(C(=O)Nc2ccc3[nH]cc(CCN4CCOCC4)c3c2)cc1	12	9
O=[N+]([O-])c1ccc(CSc2ccc(-c3ccco3)nn2)cc1	9	-3
CC(C)Oc1ncccc1CNC(=O)N1CCCC1c1ccsc1 (configuration not stated)	7	6
O=C(NCc1ccccn1)c1ccc(Nc2c(Oc3ccc4c(c3)OCO4)cnn(-c3ccccc3)c2=O)cc1	6	7
O=C(NC1CCCC1)c1ccc(S(=O)(=O)NC2CC2)cc1	0	3
CC(C)CC(=O)NCC1C(c2ccccc2)C1(C)C (configuration not stated)	-5	-7
CCS(=O)(=O)NCC(c1cccs1)S(=O)(=O)c1ccc(Cl)cc1 (configuration not stated)	-2	-4
O=C(c1ccccn1)C1CCCN(C(=O)c2c(O)cccc2O)C1 (configuration not stated)	-4	-6

In the list so far, these have a COOH group.
SMILES	NPYLR7 agonist	NPYLR7 agonist max-min
Cc1cc(N(C)/N=C\c2ccc(OCC(=O)O)cc2)nc(-c2ccccc2O)n1	-14	-22
Cn1c(=O)c2nc(Sc3ccccc3C(=O)O)n(C)c2n(C)c1=O	-2	2
O=C(O)CCc1nnc(SCc2ccc(Cl)cc2Cl)[nH]c1=O	10	4

(list continues)
SMILES	NPYLR7 agonist	NPYLR7 agonist max-min
CN1CCCC2(CCN(C(=O)CCc3nc(-c4ccncc4)no3)C2)C1=O (configuration not stated)	15	5
Cn1c(=O)[nH]c(=O)c2c1nc(NCc1ccccc1Cl)n2Cc1ccccc1Cl	12	7
C=C(C)COc1cccc(C(=O)N(CC)Cc2noc(C)n2)c1	12	10
CCOc1ccccc1N1CCN(CC(=O)C(C#N)c2nc(C)cs2)CC1 (configuration not stated)	11	8
CCOC(=O)[C@@H]1CN(C(=O)c2cc(C)oc2C)[C@H]2c3ccc(OC)cc3O[C@@H]12	0	2
O=C(NCC1CCCO1)c1c(O)c2c([nH]c1=O)CCCC2 (configuration not stated)	3	1
Cc1nn(-c2ccc(C(=O)NCCN3CCCC3)cc2)c(C)c1Cl	4	1
CC(C)COc1nc(-c2ccc(C(F)(F)F)cc2)n(-c2ccc(N)cc2)n1	-11	-17
CSc1ccc(NC(=O)C(C)C)nn1	-1	-1
O=C(c1ccc(F)cc1)c1c[nH]c2cc3c(cc2c1=O)OCCO3	-1	3
CN(C)CCN(C(=O)c1cccc([N+](=O)[O-])c1)c1nc2ccccc2s1	0	-5
CC(C)CNC(=O)C1(C)CCCN1C(=O)c1csnn1 (configuration not stated)	0	0
CN(CCCc1cnn(C)c1)Cc1cc2ccc(F)cc2[nH]c1=O	6	6
COc1ccc(C2C(=C(O)c3ccc(F)cc3)C(=O)C(=O)N2CCCN2CCOCC2)cc1 (configuration not stated)	6	9
Cc1cccc(-n2c(Cc3ccccc3)nnc2SCc2cccc(C(F)(F)F)c2)c1	-2	-1
COc1cccc(C2=NN(C(C)=O)C(C(=O)N3CCCC3c3ccncc3)O2)c1 (configuration not stated)	14	13
CCCc1nnc2c(C(=O)NCc3ccc4c(c3)OCO4)cccn12	3	3
COc1ccccc1C(=O)NC1CCN(c2ccccc2C(=O)NCc2ccncc2)CC1	17	18
Cc1cc2n(CC(O)COc3ccc(-c4ccccc4)cc3)c(=O)c3ccccc3n2n1 (configuration not stated)	2	9
